Screens (PubChem)
Yeast UUG start – modulators of start codon recognition fidelity in yeast. activity score, % at 18.7 µM. 350,000 compounds, 0.13% hits. S. cerevisiae UUG-firefly luciferase reporter, luminescence/redox ratio. AID 602363;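 active means replicate mean at a twofold rise or more, about +100% in these data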;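 further: firefly luciferase made from a UUG start codon reports start codon fidelity; reporter light over untreated wells divided by growth signal over untreated wells; some hits fall short of that in this replicate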
PABP FP inh – blocks human PABP binding to poly(A) RNA | fluorescence polarization | inhibition, % at 35 µM | AID 2014 | 290,000 compounds, 1% hits;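 active means 50% or more with normal probe brightness, or confirmed in later tests; inconclusive means above 50% with abnormal brightness, or retests that disagree; inactive means below 50% or failed in later tests; about a fifth of its hits are not listed in these tables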;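 further: calls also rest on retests at 20 µM and on dose response follow-up; controls were probe without protein and protein plus probe with vehicle; some compounds called inactive have numbers as strong as hits; many hits fall short of the cut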
Target sequence (P11940 whole entry, looked up): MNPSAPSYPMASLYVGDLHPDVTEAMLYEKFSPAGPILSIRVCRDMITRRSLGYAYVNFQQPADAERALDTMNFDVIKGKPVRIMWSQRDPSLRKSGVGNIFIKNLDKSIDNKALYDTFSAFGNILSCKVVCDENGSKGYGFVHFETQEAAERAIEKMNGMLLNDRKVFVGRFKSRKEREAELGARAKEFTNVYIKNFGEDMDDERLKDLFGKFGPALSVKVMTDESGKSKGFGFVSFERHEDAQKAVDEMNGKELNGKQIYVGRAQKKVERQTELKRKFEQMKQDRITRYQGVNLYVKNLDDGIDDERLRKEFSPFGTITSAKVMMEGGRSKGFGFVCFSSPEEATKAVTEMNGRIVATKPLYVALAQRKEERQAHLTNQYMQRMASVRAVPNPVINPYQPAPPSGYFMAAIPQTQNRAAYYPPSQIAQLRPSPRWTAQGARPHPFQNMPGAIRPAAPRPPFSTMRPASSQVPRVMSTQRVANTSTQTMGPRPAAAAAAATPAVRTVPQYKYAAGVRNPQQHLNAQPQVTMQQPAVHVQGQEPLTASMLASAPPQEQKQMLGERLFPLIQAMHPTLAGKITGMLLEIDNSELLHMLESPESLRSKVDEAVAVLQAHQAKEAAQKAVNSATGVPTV
CSC inhib – cancer stem cell inhibition | 300,000 compounds, 1.1% hits | AID 2717 | inhibition, % at 7.5 µM | cancer stem cell-like cells viability, luminescence;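 active means mean at 75% or more and at least half the replicates too; inconclusive means mean and replicates disagree; tested in HMLE shEcad cells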;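 further: 0% = median of negative and 100% = median of positive control wells; the first replicate is given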
Rce1 inh – yeast Ras-converting enzyme inhibition; yeast membranes, quenched prenylated peptide cleavage fluorescence; Q03530; calls only; 290,000 compounds, 0.27% hits;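 active means fall in fluorescence gain of 50% or more versus controls, with final raw signal at or below 3038400; inconclusive means same 50% fall but final raw signal above 3038400; inactive means fall in fluorescence gain under 50%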;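 further: plate controls were neutral control wells for no effect and wells lacking membranes for full effect; tested at 10 µM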
Target sequence (Q03530 whole entry, looked up): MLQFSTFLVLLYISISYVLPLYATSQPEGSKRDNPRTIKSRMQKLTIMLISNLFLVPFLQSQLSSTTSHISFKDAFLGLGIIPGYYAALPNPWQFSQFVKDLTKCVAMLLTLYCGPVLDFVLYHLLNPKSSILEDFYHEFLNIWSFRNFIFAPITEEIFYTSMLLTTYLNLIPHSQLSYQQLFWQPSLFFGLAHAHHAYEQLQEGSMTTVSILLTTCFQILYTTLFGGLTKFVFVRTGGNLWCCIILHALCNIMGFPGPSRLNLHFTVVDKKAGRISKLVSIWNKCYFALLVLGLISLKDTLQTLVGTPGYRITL
eIF4H FP inh – inhibitors of RNA binding by human eIF4H; Q15056; eIF4H fluorescence polarization binding assay; inhibition, % at 35 µM; 290,000 compounds, 0.94% hits; AID 2012;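 active means 50% or more with normal probe brightness, or confirmed in later tests; inconclusive means above 50% with abnormal brightness, or retests that disagree; inactive means below 50% or failed in later tests; about a fifth of its hits are not listed in these tables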;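 further: calls also rest on retests at 20 µM and on dose response follow-up; 0% = protein and probe with vehicle and 100% = probe without protein; strong numbers were not always called active; many hits fall short of the cut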
Env fusion inh – HIV envelope-mediated fusion inhibition; AID 651610; inhibition, % at 12.3 µM; 360,000 compounds, 1.1% hits; HeLa-JRFL Env/CEM21 cell fusion, luciferase;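 active means mean replicate inhibition score of at least 50 and every replicate individually at or above 50; inconclusive means only one of the two criteria met; inactive means mean below 50 and not all replicates reaching 50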;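 further: 0% = plate neutral controls and 100% = maraviroc near 300 nM; one replicate is shown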
MT1-MMP act inh – MT1-MMP (human) activation inhibition. P50281. 360,000 compounds, 0.061% hits. HT1080 RFP-PRO-GFP cells, GFP/RFP ratio fluorescence, overnight; percent of plate control window, DMSO zero. GFP/RFP ratio change, % at 20 µM;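 active means GFP/RFP ratio change of at least 30% with cell ATP level not reduced by more than half and red fluorescence within 50% of control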; further: strong numbers were not always called active
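Compound: 20 µM single dose, 1% DMSO / System: HT1080 RFP-PRO-GFP cells / Controls: DMSO and RFP-L50D-GFP cell wells / Read-out basis: GFP/RFP fluorescence ratio / Schedule: overnight compound exposure at 37 °C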
eIF4H FP inh retest – second read-out of eIF4H FP inh, no call of its own (marks repeat the call); inhibition, %; compound at 20 µM; confirmation average;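 mean of two retest wells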
PABP FP inh retest – also measured in PABP FP inh; calls as there; inhibition, %; compound at 20 µM; confirmation repeats;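 mean of two retest wells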
MT1-MMP act inh RFP – further read-out of MT1-MMP act inh, marked with its call; RFP signal change, %; measured here: RFP expression control read;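 0 = vehicle wells; hits needed this value within 50% of zero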
Starred values were filed as active, the others as inactive; i = inactive; ? = inconclusive; . = not tested or not shown; + = active, no number; & = joins results of further samples; [ ] = dose if it differs, or a comment. Random draw from the library; about 2.9% have a hit in one of these screens.

SMILES	Yeast UUG start	PABP FP inh	CSC inhib	Rce1 inh	eIF4H FP inh	Env fusion inh	MT1-MMP act inh	MT1-MMP act inh RFP	others
NC(=O)[C@H]1CC2(CC(c3cccc(NC(=O)COc4ccc(Cl)cc4)c3)=NO2)CN1C(=O)C(c1ccccc1)c1ccccc1 (stereo partly specified)	7	1	35	+	-5	-93	5	-5
COc1ccc(S(=O)(=O)N(C)C[C@@H]2OCc3cnnn3CCCC(=O)N([C@@H](C)CO)C[C@H]2C)cc1	2&3	.	.	.	.	5[16.7 µM]	-3	5
CCOC(=O)C(C)Sc1nc2c([nH]c3ccccc32)c(=O)n1C (stereo unspecified)	-18	-2	.	i	-2	.	-5	-2
CCOc1ccccc1-n1cnc(C#N)c1N	.	5	5	i	3	-6	-1	2
CC(C)(C)NCCCOc1ccc(Cl)cc1C(C)(C)C	.	2	.	i	14	.	.	.
O=C1C2C3c4ccccc4C(Br)(c4ccccc43)C2C(=O)N1c1ccccc1O (stereo unspecified)	.	-4	42	i	2	-3	2	3
Cc1ccc(OCC(=O)N/N=C\c2c(C)[nH]n(-c3ccccc3)c2=O)c([N+](=O)[O-])c1	-32	15	16	.	15	-7	3	4
O=C(Nc1ccc(S(=O)(=O)Nc2ncccn2)cc1)c1ccc(N2CCCC2=O)cc1	.	8	-2	i	20	-19	2	3
CCCCNC(=O)Nc1cc(C(=O)OC)ccc1Cl	12	0	-2	i	-6	-93	-2	0
Cc1c(Cl)cccc1NC(=S)NCCCN(C)C	-26	-6	1	i	-10	7	6	9
COC(=O)C1=C(C)N(Cc2ccc(C)cc2)C(=O)/C1=C\c1ccc(O)c(OC)c1	5	0	10	i	8	.	1	4
O=C(O)Cc1n[nH]c(=O)c2ccccc12	.	65	-22	i	1.1*	-11	11	11	eIF4H FP inh retest=69*;PABP FP inh retest=42
Cn1c(Cc2ccccc2)nnc1SCc1nc2ccccc2c(=O)[nH]1	-13	20	8	i	6	5	1	1
O=C(CN1C(=O)COc2ccccc21)NCCN1CCOCC1	-14	-11	.	i	-5	-7	3	2
Cc1nnc(NC(=O)CSc2ccccn2)s1	-15	-13	4	i	6	-26	3	3
N#CC(c1ccc(Cl)cc1)N1CCOCC1 (stereo unspecified)	-8	-1	5	i	-2	8	-1	0
O=C(CC12CC3CC(CC(C3)C1)C2)N1CCN(S(=O)(=O)c2cccs2)CC1	.	4	.	i	-3	16	-1	-3
CCOC(=O)C1=CCN(S(=O)(=O)c2ccccc2F)C1c1cccc(Br)c1 (stereo unspecified)	10	.	.	.	.	1	0	-4
O=C1Nc2ccccc2Nc2ccc([N+](=O)[O-])cc21	-23	5	0	i	10	-11	-7	-10
CC(C)(C)c1nc[nH]c(=O)c1Br	-11	-4	15	i	-10	.	0	4
CC(C)(C)NC(=O)C(=O)NNC(=O)c1ccc(C(C)(C)C)cc1	.	-3	12	i	13	4	7	6
CCCn1c(=O)c2c(C(F)(F)F)cc(-c3cccs3)nc2n(CCC)c1=O	2	-4	11	i	8	-4	-1	4
CCCC1=NN(c2ccc([N+](=O)[O-])cc2)C(=O)/C1=C\N(C)C	.	22	14	i	-12	0	1	4
Cc1ccc(OCCn2cc(Br)c(=O)[nH]c2=O)cc1	-49	-3	6	i	1	-56	-2	2
CCCCN(C(=O)C1=NN(c2cc(C)ccc2C)C(=O)CC1)c1c(N)n(CCC)c(=O)[nH]c1=O	-4	.	.	.	.	1	-4	2
CCc1ccc(N2C(=O)CC(Cn3nc(C)cc3C)C2=O)cc1 (stereo unspecified)	1	-3	-16	i	-4	7	3	4
CCC(CC)C1=NN2C(=N)/C(=C/c3ccc(OC(=O)c4ccco4)cc3)C(=O)N=C2S1	-20	4	-8	i	-4	4	-4	2
Cc1cccc(NC(=O)Cc2ccc(F)cc2)c1	-17	1	-3	i	-2	.	2	4
CCOc1ccc(-c2ncncc2-c2ccccc2OC)c(O)c1	-16	6	0	i	8	12	0	-10
O=C(CSc1nnc(CNC(=O)c2c(F)cccc2Cl)o1)NCc1ccccc1	-15	9	0	i	-4	-2	3	4
O=S(=O)(NC1CCCCC1N1CCN(c2ccccc2F)CC1)c1ccc(Cl)cc1 (stereo unspecified)	-6	3	17	i	-6	7	-5	-4
COc1ccc(S(=O)(=O)N2CCOC23CCN(S(=O)(=O)c2ccc(C)cc2)CC3)cc1	-16	.	1	i	.	-11	2	-7
CC(C)CNC(=O)c1cc([N+](=O)[O-])ccc1N1CCOCC1	.	-12	.	i	27	-6	-1	0
CCc1ccc(-n2c(SCc3cc(=O)n4cc(Br)ccc4n3)nc3[nH]ncc3c2=O)cc1	.	2	.	i	2	-10	-4	2
CC(C)(C)C(=O)Nc1nnc(SCc2ccc(F)cc2)s1	.	2	-16	i	-3	-51	0	-2
CCOC(=O)Cn1nnc2c(sc3nc4c(c(-c5ccccc5)c32)CCC4)c1=O	3	3	70	i	9	.	1	-5
Cc1ccc(Cl)cc1NC(=O)CCS(=O)(=O)c1cccc2nonc12	-7	10	-4	i	7	6	2	0
C=CCSc1ccc(S(=O)(=O)N2CCN(C)CC2)cn1	-4	.	-21	.	.	-7	5	5
CCOc1ccc(CNc2cccc(SC)c2)cc1	.	22	-5	i	6	23	-4	-1
CCN(CC)C(=O)/C=C/c1ccc(OC)c(S(=O)(=O)N2CCCCC2)c1	.	?	-5	i	-9	-1	-1	-3
Cc1cccc(-n2c(=O)[nH]c3c(C(N)=O)nc(-c4ccccc4Cl)nc32)c1	-4	-4	-12	i	-12	-46	-5	-3
CC1=CCC2COC(c3ccc[n+](Cc4ccccc4)c3)C1C2 (stereo unspecified)	2	-12	7	i	5	-15	2	2
CCOC(=O)c1c[nH]c2c(C(F)(F)F)cccc2c1=O	.	6	-6	i	5	-4	3	3
CC(C)(C)OC(=O)NN=C(c1ccc(O)cc1)c1ccc(O)cc1	-7	-6	-9	i	-7	.	-3	-4
COc1cccc(-n2ccnc2SCC(=O)Nc2cc(C)on2)c1	-20	-14	8	i	0	-11	2	2
C[C@H](CO)N1C[C@H](C)[C@@H](CN(C)C(=O)Nc2ccc(F)cc2)Oc2ccc(NS(C)(=O)=O)cc2C1=O	-30&-6	.	.	.	.	10	2	3
Cn1c(C(=O)NCCCN2CCN(c3ccccc3F)CC2)cc2c(=O)[nH]c3ccccc3c21	15	-4	2	i	0	94*	4	-1
CCOC(=O)c1[nH]c2cc3c(cc2c1NC(=O)CN1CCC2(CC1)OCCO2)OCO3	-11	1	-1	i	0	-30	4	2
Cc1ccc(S(=O)(=O)N2CCCCC2)cc1NC(=O)COC(=O)c1ccc(O)cc1	.	4	-4	i	-2	7	1	0
O=C(c1cc(C2CC2)nn1-c1ccccc1)N1CCN(c2ccc(O)cc2)CC1	-13	.	.	.	.	3	7	-1
CCN(CC)S(=O)(=O)c1cccc(-c2nnc(SCC(=O)NC)n2CCc2ccccc2)c1	-9	-1	-3	i	-6	.	2	-3
OCCSc1nc(-c2ccccc2)nc2c1CCC2	-2	-6	13	i	7	4	-2	-1
COc1cc(C(=O)NCC(c2ccccc2)N(C)C)ccc1OCC(=O)N1CCOCC1 (stereo unspecified)	.	-2	-12	i	8	-18	-2	1
CCN1CCN(C(=O)NS(=O)(=O)c2ccc(C)cc2)CC1	1	-1	.	i	0	-8	-3	-1
O=C(NC1CC1)C1CCN(S(=O)(=O)c2cc(Cl)ccc2Cl)CC1	1	-1	4	i	-2	0	1	1
CCCN(CCC)CCNC(=O)c1cn(C)c(=O)c2c1c1ccccc1n2C	-9	-8	.	i	1	-122	-1	1
CCOC(=O)c1ccc(S(=O)(=O)N2CCN(C3CCCC3)CC2)cc1	.	-1	-4	i	48	2	3	0
COc1ccccc1C(=O)N/N=C(\C)c1ccc(NC(=O)C2CC2)cc1	.	-3	-23	i	-4	-9	10	5
COCCCN1C(=O)c2ccc(C(=O)Nc3cccc(OC)c3)cc2C1=O	-24	-1	-6	i	0	.	-1	-3
Cc1ccccc1NCC(=O)Nc1cc(S(=O)(=O)N2CCCCC2)ccc1C	-4	.	.	.	.	4	1	0

Following part:
SMILES	Yeast UUG start	PABP FP inh	CSC inhib	Rce1 inh	eIF4H FP inh	Env fusion inh	MT1-MMP act inh	MT1-MMP act inh RFP	others
O=C(O)CNc1ccc(S(=O)(=O)C(F)(F)F)cc1[N+](=O)[O-]	-12	2	-7	.	0	10	-3	0
O=C(CN1CCC(n2nnc3cc(C(F)(F)F)ccc32)CC1)Nc1ccc2c(c1)CCC2	-7	-9	-5	i	-10	.	1	-10
O=C(NCCN1CCN(C(=O)c2ccc([N+](=O)[O-])cc2)CC1)C(=O)NCc1ccccc1	.	5	-3	i	-3	5	1	-4
Cc1nc2c(o1)CCc1ccccc1C2N1CCN(C)CC1 (stereo unspecified)	-6	10&12	-5&-11	i	5&10	10&-2	-7&-23&-9	0&0&-1
CC1CCN(S(=O)(=O)c2ccc3c4c2CC(=O)N4CC(C)S3)CC1 (stereo unspecified)	-14	-2	6	i	9	-4	3	-1
Nc1nnc2cc(F)ccc2n1	-11	.	.	.	.	-2	1	4
O=C(CN1C(=O)NC(Cc2ccccc2)C1=O)Nc1ccccc1 (stereo unspecified)	-8	5	3	i	-9	.	-5	1
CCCCCC(=O)N1C[C@H](n2cc(C3CC3)nn2)[C@@H](O)C[C@@H]1c1ccc(OC)cc1	-6	.	.	.	.	-15	3	3
COc1cc(OC)cc(C(=O)Nc2ccc(-n3cnnn3)c(C)c2)c1	.	6	3	i	-8	.	4	4
CCCCC(=O)Nc1ccc(N2CCN(S(C)(=O)=O)CC2)cc1	13	-4	-8	i	-9	-91	.	.
O=C(NC1CC1)C1=C[C@@H](c2ccccc2)C[C@@H](OCCCCO)O1	-25	-8	-9	i	2	-13	0	2
CCOC(=O)c1c(NC(=O)C(=O)N/N=C(\C)c2ccc(OC)cc2)sc2c1CCCCC2	5	-5	9	i	0	.	-7	1
Cn1c(SCC(=O)NNC(=O)Cc2ccccc2)nc2ccccc2c1=O	.	-3	-11	i	0	4	2	-1
CC1CC(C)(C)CC2(C1)NC(=O)N(CC(=O)NCCc1ccc3c(c1)OCCO3)C2=O (stereo unspecified)	.	-4	8	i	0	0	1	2
COc1ccc(NC(=S)N(CCCN2CCCC(C)C2)Cc2cccs2)cc1 (stereo unspecified)	.	-5	8	i	-4	-15	0	2
CC(C)CC(CC(C)C)=NNC(=O)c1ccc2c(c1)OCO2	-3	8	7	i	10	-9	4	5
CCS(=O)(=O)NCC(c1ccco1)N1CCN(c2ccccc2)CC1 (stereo unspecified)	-32	5	.	i	-4	1	1	8
CCN(CC(=O)Nc1ccccc1C(=O)OC)S(=O)(=O)c1ccc(OC)cc1	9	-4	-3	i	2	.	0	-4
CC(C)Oc1ccc(CNC(=O)c2cc(S(=O)(=O)N3CCOCC3)cn2C)cc1	11	11	-4	i	7	-2	0	2
CC(=O)C1=C(O)C(=O)N(c2ccc(O)cc2)C1c1ccccc1 (stereo unspecified)	-13	15	-4	i	-7	-22	3	3
O=C(NCCSc1ccccc1)c1ccco1	-2	6	8	i	3	.	4	3
Oc1ccccc1-c1nc(NCc2ccco2)c2ccccc2n1	-20	2	14	i	2	-59	0	-5
